High-throughput results (PubChem BioAssay)
Mtb betalactam – beta-lactam sensitization of Mtb H37Rv | M. tuberculosis H37Rv growth with meropenem, percent inhibition; hits of this screen are not shown here | inhibition, % at 25 µM | actives 0.27% (n = 330,000);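 active = about 74% or more and at least 40 points above the plate without the antibiotic, then above 30% in a dose series; inconclusive = first-round hits that could not be retested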;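 note: growth measured after seven days incubation then overnight dye step; 0% = bacteria only wells and 100% = bacteria with antibiotic; twin plates without the antibiotic show which effects depend on it; some results filed as inactive read as strong as hits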
RecA splice inh – Mtb RecA intein splicing inhibition; P9WHJ3; cell-free RecA intein splicing, fluorescence; inhibition, %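 (about 9 µM by stock and volumes)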; actives 0.75% (n = 290,000); AID 2221; in the data active = inhibition above about 30%; inconclusive = no clear call, values can overlap the other calls;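 note: 0% = vehicle wells and 100% = reference inhibitor control wells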
Target sequence (P9WHJ3 whole entry, looked up, canonical isoform): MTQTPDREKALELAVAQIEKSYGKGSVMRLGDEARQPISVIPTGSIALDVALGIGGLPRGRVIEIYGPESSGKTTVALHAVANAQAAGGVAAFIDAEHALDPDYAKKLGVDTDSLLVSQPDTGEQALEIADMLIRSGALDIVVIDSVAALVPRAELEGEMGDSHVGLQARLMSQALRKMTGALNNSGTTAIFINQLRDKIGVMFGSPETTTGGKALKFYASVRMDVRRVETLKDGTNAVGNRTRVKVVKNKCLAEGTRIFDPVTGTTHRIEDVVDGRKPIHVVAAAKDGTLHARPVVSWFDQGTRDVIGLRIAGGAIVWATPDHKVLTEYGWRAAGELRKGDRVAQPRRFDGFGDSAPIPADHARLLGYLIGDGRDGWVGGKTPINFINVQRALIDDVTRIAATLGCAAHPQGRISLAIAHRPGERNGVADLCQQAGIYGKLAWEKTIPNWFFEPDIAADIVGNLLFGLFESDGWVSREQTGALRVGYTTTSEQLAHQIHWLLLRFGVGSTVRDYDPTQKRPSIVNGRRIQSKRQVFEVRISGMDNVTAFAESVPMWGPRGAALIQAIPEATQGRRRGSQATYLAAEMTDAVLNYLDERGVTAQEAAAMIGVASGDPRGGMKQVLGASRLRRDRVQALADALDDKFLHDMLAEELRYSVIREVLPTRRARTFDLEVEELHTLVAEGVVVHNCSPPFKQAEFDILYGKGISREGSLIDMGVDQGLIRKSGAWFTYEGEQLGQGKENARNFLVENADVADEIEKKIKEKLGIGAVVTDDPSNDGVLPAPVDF
Mtb H37Rv – M. tuberculosis H37Rv growth inhibitors, H37Rv strain (AID 1626). M. tuberculosis H37Rv growth inhibition; higher % means a stronger effect. one-dose inhibition, % at 10 µM; IC50 in µM for titrated hits. actives 0.95% (n = 220,000);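 active = confirmed in a dose series; inconclusive = inhibition above 80% but not taken into the dose series; inactive = below 80% or under 30% at every dose of the series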;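 note: bacteria incubated seven days before Alamar blue readout; 0% = bacteria only wells and 100% = bacteria with antibiotic wells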
Arbovirus anti – antivirals against arbovirus infection; actives 0.37% (n = 200,000); AID 1251; inhibition, % at 10 µM; arbovirus infection cell-based antiviral screen;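 active = inhibition from about 30%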;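 note: bluetongue infection of BSR cells; cell survival read as ATP light after 72 h; 0% = infected wells without compound and 100% = uninfected wells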
YopH inh – blocks Yersinia enterocolitica YopH tyrosine phosphatase; fluorescence Ex485/Em525; inhibition, %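 (about 10 µM by stock and volumes)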; actives 0.16% (n = 140,000);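 active = inhibition of 50% or more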;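 note: controls were vehicle for no effect and minimum signal wells for full effect; inactives centre near -20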
Arbovirus anti repeat – second read-out of Arbovirus anti, no call of its own (marks repeat the call); inhibition, %; measured here: 10K subset replicate screen; many hits read low in the repeat;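 first of two repeat runs on a subset; 0% = infected and 100% = uninfected wells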
* marks the source's active call; other numbers are inactive results; u = inconclusive; x = not tested or not shown.

SMILES	Mtb betalactam	RecA splice inh	Mtb H37Rv	Arbovirus anti	YopH inh	others
Cc1ccc(S(=O)(=O)NNC(=O)Nc2cccc3ccccc23)cc1	4	-0.8	-3%	4	-15
COc1ccc(COCC(O)CN2CCC(CN3C(=O)c4cccc5cccc(c45)C3=O)CC2)cc1OC (stereo not given)	92	0.4	13µM*	-27	-25
O=C(NCCc1ccccc1)c1ccccc1SCC(=O)N1CCCC1	-3	1.6	x	x	x
COC(=O)c1ccc(Cn2c(O)c(N=O)c3ccccc32)o1	-6	-1.4	2%	-2	-15
O=C(O)c1ccc(-c2noc(-c3ccccc3F)n2)cc1	-13	-0.7	-17%	x	x
CC1(C)CCCN(Cc2c(O)ccc3c(=O)c(-c4nc5ccccc5s4)c(N)oc23)C1	86	-3.9	u	x	x
O=C(O)c1ccccc1C(c1ccc(O)cc1)c1ccc(O)cc1	0	0.3	x	x	x
Cc1[nH]c2ccccc2c1/C=N/NC(=O)Nc1ccccc1	2	-5.8	1%	0	x
Cc1cc(C)n(-c2nnc(Cl)c3ccccc23)n1	-7	-4.2	5%	5	x
CCCC(=O)N(C)c1nnc(-c2ccc(OC)cc2)s1	-10	1.2	-5%	-7	-25
COc1cccc(C(=O)N2N=C(c3cccc(OC)c3)CC2(O)C(F)(F)F)c1 (stereo not given)	-5	4.3	9%	11	-38
CCOC(=O)N1CCN(C(=O)CCNS(=O)(=O)c2cc(Br)cnc2N)CC1	4	x	-3%	-2	-48
O=C(Nc1ccc(S(=O)(=O)N2CCCCC2)cc1)c1ccccc1Cl	-3	2.4	1%	-15	-12
COc1ccc(-c2nnc(SCC(=O)NCCc3ccccc3)o2)cc1	99	1.1	u	0	11
CC(=O)c1ccc(NC(=O)C(C)NCc2ccccc2Cl)cc1 (stereo not given)	2	0.0	1%	11	x
CCOC(=O)Cc1csc(NC(=O)CCNS(=O)(=O)c2ccc3c(c2)CCC(=O)N3)n1	2	-0.2	-6%	1	-21
CCOC(=O)c1oc2cc(O)cc(C)c2c(=O)c1-c1cscn1	-6	-1.1	-2%	1	-8
N#CNC1=NCN(Cc2ccccc2)CN1	2	2.2	-12%	-2	-57
C/C=C(\C)C(=O)NCCN1C2=NC[C@@H](C)N2C[C@H]1Cc1ccc(O)cc1	-6	-3.6	-7%	5	x
CC(OC(=O)C1CCN(S(=O)(=O)c2ccccc2)CC1)C(=O)Nc1ncc(Cl)cc1Cl (stereo not given)	-4	-0.2	-2%	4	-16
COc1ccc(N2CCN(S(=O)(=O)c3ccc(-n4cnnn4)c(C)c3)CC2)cc1	2	-2.4	-6%	4	-28
CCCCOC(=O)c1[nH]c2c(c1C)C(=O)CC(c1cc(OC)c(OC)c(OC)c1)C2 (stereo not given)	3	0.1	-13%	10	-18	Arbovirus anti repeat=6
CCCCOC(=O)Nc1nnc(C(C)C)s1	-7	-0.1	4%	0	x
COc1ccc(CCNc2ccncn2)cc1OC	5	-1.3	-5%	15	2
CCOC(=O)c1ccc(NS(=O)(=O)c2ccc3[nH]c(=O)[nH]c3c2)cc1	1	4.2	-1%	5	-35
Cc1oc(-c2ccccc2)cc1C(=O)Nc1ccccc1	-4	-3.8	5%	1	-3
CC(OC(=O)Cc1c[nH]c2ccccc12)C(=O)Nc1ccc(S(N)(=O)=O)cc1 (stereo not given)	-2	0.5	x	x	x
CC1Sc2ccc(S(=O)(=O)CCC(=O)NCc3cccs3)cc2NC1=O (stereo not given)	4	2.1	x	x	x
CC(OC(=O)c1cccc(S(=O)(=O)Nc2cccc(C(F)(F)F)c2)c1)C(=O)Nc1ccc2c(c1)OCCO2 (stereo not given)	-7	2.1	9%	19	-20
CCOC(=O)N1CCN(C(=O)c2ccc(NS(=O)(=O)c3ccc(F)cc3)cc2)CC1	-4	-1.1	-4%	2	x
Cc1ccc(-c2nc(CSCC(=O)N3CCN(c4ccccn4)CC3)c(C)o2)cc1	6	1.4	13%	7	1	Arbovirus anti repeat=3
CCCc1ccc(Oc2coc3cc(OCC(=O)Nc4ccccc4C)ccc3c2=O)cc1	-5	4.2	12%	-2	-26
COc1cccc(C(=O)N2CCN(Cc3nc(CC4CC4)no3)CC2)c1	-9	-0.5	-10%	x	x
C(=C\c1ccco1)/c1ccc2ccccc2n1	4	3.6	-6%	x	x
O=c1c2cc(NC(=S)NCc3cccnc3)ccc2nc2n1CCCCC2	1	-0.5	2%	-1	x
Cc1cc(NC(=O)CN2CCOCC2)n(-c2nc3ccccc3s2)n1	70	6.5	8%	-8	-17
CC(=O)c1cccc(NC(=O)CN2CCc3cc4c(cc3C2)OCCCO4)c1	-7	5.6	x	x	x
CC1CCN(S(=O)(=O)c2ccc3ncn(CC(=O)N(C)Cc4ccccc4)c(=O)c3c2)CC1	2	2.6	-4%	-9	-20
COc1ccc(S(=O)(=O)NCC2CCC(C(=O)NCc3ccco3)CC2)cc1 (stereo not given)	-12	-4.8	6%	3	-15
CCOC(=O)C(C(=O)Nc1nccs1)C1CCCCC1 (stereo not given)	-11	1.9	-5%	0	-5
O=C(CCN1C(=O)c2ccccc2C1=O)C1=NN[C@@H]2C(=O)N(c3ccc4c(c3)OCO4)C(=O)[C@H]12	2	0.0	-4%	x	x
Nc1nc2nonc2nc1N1CCCCC1	-1	2.1	0%	5	-37
CCN(CC)S(=O)(=O)c1cccc(NC(=O)CN(C)Cc2cccc(OC)c2)c1	4	2.2	4%	x	x
Cc1nc(NC(=O)c2ccco2)sc1-c1csc(Nc2ccc(Cl)cc2Cl)n1	91	-0.3	2%	-10	11
CC(=O)c1cc(N2CCC(C(=O)O)CC2)ccc1[N+](=O)[O-]	-6	x	-4%	2	x
O=C(CNC(=O)c1ccccc1)NCCc1nc2ccccc2[nH]1	-5	-3.2	-1%	5	-35
CCn1nc([N+](=O)[O-])c2c(-c3nc4ccccc4o3)c(N)n(CCCOC)c2c1=O	11	3.0	-1%	-4	x
CCOC(=O)c1c(CN(CC)CC)oc2cc(Br)c(O)cc12	-1	-0.8	12%	25	-3	Arbovirus anti repeat=5
Cc1cccc(N=C2NC(=O)CS2)c1	1	-4.0	-1%	7	3
CCc1ccc(N2CC(O)=C(c3nc4ccccc4c(=O)[nH]3)C2=N)cc1	2	-5.0	-3%	-11	x
CC(C)CCNC(=O)c1c[nH]c2ccc(S(=O)(=O)N3CCC4(CC3)OCCO4)cc2c1=O	2	-1.8	-8%	-8	-20
NC(=O)c1ccc(Oc2ccc(Cl)c3ccccc23)c([N+](=O)[O-])c1	6	1.0	8%	3	-21
Cc1nn(-c2ccccc2C(=O)O)c(=O)c2ccccc12	1	-2.0	-11%	0	-31
COc1ccc(CCNC(=O)c2cc(-c3ccc(C)cc3O)n[nH]2)cc1OC	13	-5.0	-7%	-3	-22
Cc1ccc(F)cc1NC(=O)N1CCCN(c2ccc(C(F)(F)F)cn2)CC1	-10	1.1	9%	x	x
CC(O)(CC(=O)O)CC(=O)O	-6	0.1	-8%	x	x
O=C(NCc1ccccc1)C1(C(F)(F)F)C/C(=C\CCO)CCCO1 (stereo not given)	-11	0.7	-10%	x	x
CCOC(=O)Cn1c(C(=O)OCC)cc2sccc21	14	-0.9	6%	5	-37
CCC1Oc2ccccc2N(CC(=O)NCCCN2CCN(CC)CC2)C1=O (stereo not given)	0	8.1	x	x	x
Cc1nc2ccc(S(=O)(=O)NC(C(=O)NCc3ccco3)C(C)C)cc2s1 (stereo not given)	-9	x	-13%	6	-34	Arbovirus anti repeat=5

Three neighbouring records from above, for reference:
SMILES	Mtb betalactam	RecA splice inh	Mtb H37Rv	Arbovirus anti	YopH inh	others
CC(=O)c1cc(N2CCC(C(=O)O)CC2)ccc1[N+](=O)[O-]	-6	x	-4%	2	x
O=C(CNC(=O)c1ccccc1)NCCc1nc2ccccc2[nH]1	-5	-3.2	-1%	5	-35
CCn1nc([N+](=O)[O-])c2c(-c3nc4ccccc4o3)c(N)n(CCCOC)c2c1=O	11	3.0	-1%	-4	x

Three compounds drawn at random from those above, as already listed:
SMILES	Mtb betalactam	RecA splice inh	Mtb H37Rv	Arbovirus anti	YopH inh	others
O=C(CCN1C(=O)c2ccccc2C1=O)C1=NN[C@@H]2C(=O)N(c3ccc4c(c3)OCO4)C(=O)[C@H]12	2	0.0	-4%	x	x
CCn1nc([N+](=O)[O-])c2c(-c3nc4ccccc4o3)c(N)n(CCCOC)c2c1=O	11	3.0	-1%	-4	x
COc1ccc(CCNC(=O)c2cc(-c3ccc(C)cc3O)n[nH]2)cc1OC	13	-5.0	-7%	-3	-22

Remaining list, next part
SMILES	Mtb betalactam	RecA splice inh	Mtb H37Rv	Arbovirus anti	YopH inh	others
O=C(Nc1ccc(Cl)cc1Cl)Nn1cnnc1	1	-3.4	x	x	x
Cc1cccc(C(=O)Nc2scc(-c3ccc(Br)cc3)c2C(=O)O)c1	16	1.6	x	x	x
COC(=O)c1sc(S(=O)(=O)N2CCN(c3ccccc3)CC2)c(C(=O)OC)c1C	2	-5.6	-2%	0	-32
Cc1cc(C)cc(C(=O)OCC(=O)Nc2cccc(S(=O)(=O)NC3=NCCCCC3)c2)c1	u	-7.8	7%	4	-22
COc1cccc2cc(-c3nnc(SCC(=O)Nc4nc(C)cs4)n3C)oc12	-2	0.4	-3%	-2	1
O=C(NCc1cccc(F)c1)C1CCN(C(=O)c2sccc2-n2cccc2)CC1	-1	-0.4	3%	8	x
CN(C)C(=O)C1OC(C)(C)OC1C(=O)N(C)C (stereo not given)	-4	-6.5	-5%	0	-17
Cc1cc(NC(=O)COC(=O)c2ccc(S(=O)(=O)N3CCCc4ccccc43)cc2)no1	-13	5.8	9%	-14	-29
CCc1cc(=O)oc2c(C)c(OCC(=O)NCCCN3CCCC3=O)ccc12	4	-3.0	x	x	x
Cc1sc2ncnc(OCC(=O)N3CC(=O)Nc4ccccc43)c2c1C	-14	-2.3	-3%	1	x
C=CCNc1nc(Cl)nc(Nc2ccc(OC)cc2)n1	x	0.0	4%	4	-32
COc1ccc(N2C(=O)CC(NCCNc3ccc([N+](=O)[O-])cn3)C2=O)cc1 (stereo not given)	6	-0.1	-3%	1	-16
Clc1ccc2oc(-c3cccnc3NCc3ccccc3)nc2c1	5	-33	1%	8	-13
O=S(=O)(c1ccccc1)N(CC(O)CN1CCCCC1)c1ccccc1 (stereo not given)	-4	-3.4	-10%	2	-1
O=C(O)C(c1ccccc1)N1CCCC1 (stereo not given)	-7	0.4	-2%	0	-6
Cn1c2ccccc2c(=O)c2c(=O)n(C3CCCCC3)c(-c3cccs3)nc21	11	-1.6	14%	-34	-6
CC1CCN(CCNC(=O)CCS(=O)(=O)c2ccc(Br)cc2)CC1	-4	x	2%	-4	-16
CCOC(=O)C1=C(C)OC2(O)c3ccccc3C(=O)C12O (stereo not given)	-7	3.0	0%	x	x
O=C(C1CCCN(S(=O)(=O)c2cccc3nonc23)C1)N1CCN(c2cccc(Cl)c2)CC1 (stereo not given)	66	3.4	45%	14	8
CSc1ccc(CNC(=O)C2Cc3cc(S(=O)(=O)N4CCCCC4)ccc3N2C(C)=O)cc1 (stereo not given)	98	0.1	x	x	x
O=S(=O)(/N=C(/Nc1ccccn1)c1ccccc1)c1ccc(F)cc1	2	0.6	x	x	x
Oc1ccc(/C=N/NP(=S)(c2ccccc2)c2ccccc2)cc1O	0	x	x	-29	-13
CCN(CC)CCNc1nc(-c2ccc(OC)cc2)c(-c2ccc(OC)cc2)s1	100	1.4	u	x	x
CCOC(=O)c1c(NC(=O)C2=C(C)NC(=S)NC2c2ccc(CC)cc2)sc(C)c1C (stereo not given)	x	-20	u	-4	-27
O=C(NCCOc1ccc(F)cc1)C1CCC(=O)N(CCCN2CCCC2=O)C1 (stereo not given)	0	2.1	x	x	x
O=C(CN1C(=O)NC(Cc2c[nH]c3ccccc23)C1=O)NC1CC1 (stereo not given)	-6	0.6	x	x	x
COc1cc(CNCCC2CCOC(C)(C)C2)ccc1O (stereo not given)	0	-0.8	-7%	-1	-12
Cc1cccc(/C(N)=N/OC(=O)c2ccc3c(c2)OCO3)c1	-4	-0.4	0%	6	10
CC(=O)N1c2ccc(S(=O)(=O)NCCC(=O)NC3CCC(C)CC3)cc2CC1C (stereo not given)	-4	-1.1	x	x	x
CCCNC(=O)C1CCN(S(=O)(=O)c2c(C)noc2/C=C\c2ccc(OC)cc2)CC1	-3	-1.1	-1%	-16	-1
CCN(CC(=O)Nc1ccccc1C(F)(F)F)C(=O)c1cccc(N2C(=O)CCC2=O)c1	-4	0.8	x	x	x
COc1ccc2nc(NC(=O)CC3Oc4ccccc4NC3=O)sc2c1 (stereo not given)	1	-0.1	0%	x	x
O=C1CCC(C(=O)Nc2ccccc2N2CCCC2)=NN1	-8	-1.1	x	x	x

Only part of the results is shown; rates above refer to the full screens.
